SARS PLP yeast: blocks SARS-CoV papain-like protease in a yeast assay; Potency, µM (doses to about 32.9 µM), for inactives: at the top dose activity, positive = growth rescue; 330,000 compounds, 0.19% hits; S. cerevisiae expressing SARS-CoV PLpro, growth rescue; control for the full effect not named in the record; active means well fitted rising curve with a large enough effect; inconclusive means small, poorly fitted or top-dose-only effect; inactive means no such curve, though single readings can be large or run the other way; also: 0% is about no effect; nearly all actives have a fitted effect of over 55% in size; growth read by luminescence after 48 h
MARV entry inh: blocks Marburg virus binding to or entry into cells; Potency, µM (doses to about 37.8 µM), without a hit: at the highest dose activity change, negative = inhibition, hits mostly inhibitors; 300,000 compounds, 1.8% hits; Marburg virus pseudotyped entry inhibition, cell reporter; control for the full effect not named in the record; about a third of the inactives were read at about 46 µM; active = well fitted inhibition curve with a large enough effect; inconclusive = small, poorly fitted or top-dose-only effect, or effect the other way; inactive = flat fitted curve, though single readings scatter; tested in HEK293 cells; about a fifth of its hits are not listed in these tables; also: % is scaled to controls: 0 for no effect and ±100 for the full control effect; luciferase read-out
RE007 growth inh: less growth of the S. pombe RE007 Vpr strain; 360,000 compounds, 0.21% hits; S. pombe RE007 Vpr strain, BacTiter-Glo ATP luminescence, 24 h; control for the full effect not named in the record; Potency, µM (titrated, usually from 92.2 µM), for the others: at the highest dose activity change, negative = less growth; AID 651644; active = well fitted falling curve with a large enough effect; inconclusive = small, poorly fitted or top-dose-only effect; inactive = no such curve, though single readings can be large or run the other way;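 also: % is scaled to controls: 0 for no effect and ±100 for the full control effect; nearly all actives have a fitted effect of over 50% in size; the assay follows cell death caused by Vpr and the record does not say whether a fall means rescue or toxicity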
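Fission yeast strain RE007, carrying one chromosomally integrated HIV-1 vpr copy, was seeded at OD 0.01 in PMG+AL medium with 23 nL pinned compound. After 24 h at 30 °C and 99% humidity, viability was read by BacTiter-Glo luminescence.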
Cruzain Triton: blocks cruzain activity in presence of Triton detergent; Potency, µM, without a hit: max response, negative = inhibition, most hits filed as inhibitors; P25779; purified cruzain, Z-FR-AMC fluorescence, 0.01% Triton; 200,000 compounds, 0.43% hits;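 also: plate controls were neutral wells for no effect and buffer without enzyme for full effect; nearly all actives have a fitted effect of over 40% in size; top concentration of the series not given in the record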
Target sequence (P25779 123-467 limits assumed): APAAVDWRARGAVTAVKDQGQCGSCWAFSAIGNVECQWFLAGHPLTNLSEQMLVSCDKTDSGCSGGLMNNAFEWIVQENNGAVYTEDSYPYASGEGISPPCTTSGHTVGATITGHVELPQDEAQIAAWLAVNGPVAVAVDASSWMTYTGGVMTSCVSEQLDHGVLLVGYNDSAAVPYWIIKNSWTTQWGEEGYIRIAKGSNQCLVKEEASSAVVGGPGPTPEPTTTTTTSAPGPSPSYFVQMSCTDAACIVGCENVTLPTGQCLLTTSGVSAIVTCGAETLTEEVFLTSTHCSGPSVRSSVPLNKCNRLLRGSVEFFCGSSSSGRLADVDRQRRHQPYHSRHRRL
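Z-FR-AMC hydrolysis (2 uM substrate) by cruzain (1.5 nM) monitored kinetically at ex 360/em 450 nm after 15 min room-temperature compound exposure; 0.01% Triton X-100, pH 5.5, 5 mM DTT.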
NS1 inh: inhibitors of influenza NS1 protein function. S. cerevisiae slowed by influenza A NS1, growth recovery by OD600. Potency, µM (series often up to 46.1 µM), for the others: top-dose activity, positive = more growth. 270,000 compounds, 0.4% hits; active means well fitted rising curve with a large enough effect; inconclusive means small, poorly fitted or top-dose-only effect; inactive means no such curve, though single readings can be large or run the other way; also: nearly all actives have a fitted effect of over 50% in size
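Compounds were scored for reversing the slow growth caused by influenza A NS1 in S. cerevisiae, measured by optical density at 600 nm. Assay medium contained 2% galactose at pH 6.0; NS1-free yeast of the same strain were the positive control.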
Lassa entry inh: inhibitors of Lassa virus binding or cell entry; Lassa virus pseudotype entry inhibition, cell reporter; control for the full effect not named in the record; Potency, µM (titrated, usually from 37.9 µM), inactives show top-dose activity change, negative = inhibition, most hits filed as inhibitors; 300,000 compounds, 1.2% hits; active means well fitted inhibition curve with a large enough effect; inconclusive means small, poorly fitted or top-dose-only effect, or effect the other way; inactive means flat fitted curve, though single readings scatter; tested in HEK293 cells; also: % is scaled to controls: 0 for no effect and ±100 for the full control effect; nearly all actives have a fitted effect of over 50% in size; luciferase read-out
Cruzain inh noDet: cruzain (T. cruzi) inhibition without detergent; 200,000 compounds, 2.3% hits; purified cruzain, Z-FR-AMC fluorescence, no detergent; Potency, µM, for inactives: max response, negative = inhibition, usual class: inhibitors; P25779; AID 1476;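 also: plate controls were enzyme without inhibitor for no effect and buffer without enzyme for full effect; nearly all actives have a fitted effect of over 40% in size; top concentration of the series not given in the record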
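Detergent-free condition (0.00005% Triton X-100) in acetate buffer pH 5.5 with DTT. 1.5 nM enzyme and compound were pre-mixed 15 min, then 2 uM Z-FR-AMC substrate added; reaction progress from fluorescence change between first and third reads (60 s).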
StopGo reporter: lowers the luciferase signal of an FMDV 2A StopGo reporter | human cells with a luciferase reporter of 2A StopGo recoding; control for the full effect not named in the record | Potency, µM (titrated, usually from 57.9 µM), for inactives: at the highest dose signal change, negative = less light | 410,000 compounds, 1.2% hits | AID 1159524; active = well fitted falling curve with a large enough effect; inconclusive = small, poorly fitted or top-dose-only effect; inactive = no such curve, though single readings can be large or run the other way; tested in HEK293T cells; also: % is scaled to controls: 0 for no effect and ±100 for the full control effect; nearly all actives have a fitted effect of over 45% in size; luciferase light after 4 h
* marks the source's active call; other numbers are inactive results; & = joins results of further samples; [ ] = remark or other dose. Unless noted, calls follow the shape of the dose curve; as a rule, active = well fitted curve in the direction sought with a large enough effect; inconclusive = small, poorly fitted or top-dose-only effect, or another doubt; inactive = no such curve, though single readings can be large; an effect the other way counts as inactive or inconclusive. Potency is read from the fitted curve at half-maximal effect.

For CC1(C)C(=O)OC(c2cccs2)C2(CCCCC2)C1=O (configuration not stated) the results were SARS PLP yeast 5%, MARV entry inh -15%, RE007 growth inh 21%, Cruzain Triton -0.2%, NS1 inh 3%, Lassa entry inh inconclusive, Cruzain inh noDet 2% and StopGo reporter inconclusive.
`CNC(=O)CN(CCc1ccccc1)S(=O)(=O)c1ccc(OC)cc1` gave SARS PLP yeast -2%, RE007 growth inh 20%, NS1 inh -5% and StopGo reporter 7%.
Screening C/C(N)=C(/C#N)C(=O)CSc1nc2ccccc2c(=O)n1-c1ccc(C)c(Cl)c1 returned SARS PLP yeast -9%, MARV entry inh inconclusive, RE007 growth inh -13%, Cruzain Triton -5.1%, NS1 inh 2%, Lassa entry inh -21%, Cruzain inh noDet 12% and StopGo reporter -15%.
For CCOC(=O)C1C(c2cccc(Cl)c2Cl)NC(=O)NC1(O)C(F)(F)F (configuration not stated) the results were SARS PLP yeast 2%, MARV entry inh inconclusive, RE007 growth inh 0%, Cruzain Triton 3.0%, NS1 inh 3%, Lassa entry inh 1%, Cruzain inh noDet 4% and StopGo reporter -8%.
For Cn1nnnc1SCc1ccc(F)cc1 the results were SARS PLP yeast 6%, MARV entry inh 18%, RE007 growth inh 18%, Cruzain Triton -3.4%, NS1 inh -5%, Lassa entry inh 14%, Cruzain inh noDet 9% and StopGo reporter -15%.
C#CCNC(=O)C1=C[C@@H](c2ccc(C(F)(F)F)cc2)C[C@@H](OCCCCO)O1 was read as SARS PLP yeast -3%, RE007 growth inh 7%, NS1 inh 1% and StopGo reporter 0%.
For O=C(O)CSc1ccc2nnc(-c3cccnc3)n2n1 the results were SARS PLP yeast -1%, RE007 growth inh 7%, NS1 inh 4% and StopGo reporter 7%.
Cc1ccc(S(=O)(=O)N2CCN(C)CC2)c(C)c1N(C)S(=O)(=O)c1ccc(Cl)cc1 was read as SARS PLP yeast -1%, MARV entry inh inconclusive, RE007 growth inh -1%, Cruzain Triton -1.7%, NS1 inh -15%, Lassa entry inh -9%, Cruzain inh noDet 10% and StopGo reporter -18%.
Screening CCn1c(CC(=O)Nc2ccccc2)nnc1SCC(=O)NC1=NCCS1 returned SARS PLP yeast 23%, MARV entry inh inconclusive, RE007 growth inh -23%, NS1 inh 2% and StopGo reporter 20%.
Cc1ccc(C(=O)NCC2CCCO2)o1 (configuration not stated) was read as SARS PLP yeast 2%, MARV entry inh -18%[46.1 µM], RE007 growth inh 9%, Cruzain Triton 6.1%, NS1 inh -8%[9.22 µM], Lassa entry inh 6%, Cruzain inh noDet 2% and StopGo reporter -7%.
`O=C(NN=C1CCCC1)c1cc(-c2ccccc2)n[nH]1` gave SARS PLP yeast -5%, MARV entry inh 3%, RE007 growth inh 24%, Cruzain Triton -0.1%, NS1 inh 15%, Lassa entry inh 4%, Cruzain inh noDet 3% and StopGo reporter 15%.
For Cc1cc(C)n(-c2ccc(NC(=O)C3CCN(Cc4ccc(C)o4)CC3)cc2)n1 the results were SARS PLP yeast 0%, RE007 growth inh -3%, NS1 inh 3% and StopGo reporter -7%.
Screening Cc1cc(C)n2c(SCC(=O)Nc3cccc(S(N)(=O)=O)c3)nnc2n1 returned SARS PLP yeast -1%, MARV entry inh inconclusive, RE007 growth inh -4%, Lassa entry inh -2%[46.1 µM] and StopGo reporter 19%.
Screening CC(C)n1c(O)c(N=NC(=O)c2ccccc2NS(=O)(=O)c2cccs2)c2ccccc21 returned SARS PLP yeast 6%, MARV entry inh -8%, RE007 growth inh -8%, Cruzain Triton -8.5%, NS1 inh -2%, Cruzain inh noDet inconclusive and StopGo reporter 12%.
Screening CCC(C)C(N)C(=O)NC(CCC(=O)OCc1ccccc1)C(N)=O (configuration not stated) returned SARS PLP yeast 0%, MARV entry inh 21%, RE007 growth inh -3%, Cruzain Triton 0.6%, NS1 inh -6%, Lassa entry inh 2%, Cruzain inh noDet 7% and StopGo reporter -14%.
For Cc1ccc(NC(=O)CCC(=O)OCC(F)(F)C(F)F)cc1 the results were SARS PLP yeast 2%, MARV entry inh 5%, RE007 growth inh 21%, Cruzain Triton 0.8%, NS1 inh 6%, Lassa entry inh 2%, Cruzain inh noDet -7% and StopGo reporter -4%.
O=C1NC(=O)C(=Cc2ccc(N3CCOCC3)cc2)C(=O)N1 was read as SARS PLP yeast 1%, MARV entry inh 4%, RE007 growth inh 18%, Lassa entry inh -11% and StopGo reporter -6%.
`COc1cccc(C(=O)NNC(=O)c2cccc(F)c2)c1` gave SARS PLP yeast 0%, MARV entry inh 6%, RE007 growth inh inconclusive, NS1 inh -12%, Lassa entry inh -3% and StopGo reporter 44%[activator].
For CCOc1ccc(N2C(=O)/C(=C\c3ccccc3OC)S(=O)(=O)C2c2cccc([N+](=O)[O-])c2)cc1 (configuration not stated) the results were SARS PLP yeast 1%, MARV entry inh 14%, RE007 growth inh -13%, Cruzain Triton -2.0%, NS1 inh 11µM*, Lassa entry inh -12%, Cruzain inh noDet -6% and StopGo reporter inconclusive.
`Cc1cc(OCC(=O)Nc2ccccc2N2CCCCC2)ccc1C(C)C` gave SARS PLP yeast -1%, MARV entry inh inconclusive, RE007 growth inh 2%, Lassa entry inh inconclusive and StopGo reporter -20%.
`COc1ccc(C(c2nnnn2C2CCCCC2)N2CCN(c3ccc(OC)cc3)CC2)cc1` (configuration not stated) gave SARS PLP yeast -8%, MARV entry inh inconclusive, RE007 growth inh 29%, Cruzain Triton -1.3%, NS1 inh -8%, Lassa entry inh inconclusive, Cruzain inh noDet 6% and StopGo reporter 0%.
For CCCOC(=O)C1=C(C)NC(=O)NC1c1cc2c(cc1Br)OCO2 (configuration not stated) the results were SARS PLP yeast -1%, MARV entry inh 2%, RE007 growth inh 2%, NS1 inh 16%, Lassa entry inh 0% and StopGo reporter -19%.
Cc1ccc(S(=O)(=O)NNC(=O)c2sccc2-n2cccc2)cc1 was read as SARS PLP yeast -5%, MARV entry inh 6%, RE007 growth inh 2%, Cruzain Triton 3.2%, NS1 inh inconclusive, Lassa entry inh -3%, Cruzain inh noDet -2% and StopGo reporter 23%.
Screening Oc1ccc(C2=CSC3=NCCN23)cc1O returned SARS PLP yeast 0%, RE007 growth inh 0%, NS1 inh 3% and StopGo reporter -18%.
For CCC(C)NS(=O)(=O)c1ccc(NC(=O)Cc2ccc(OC)cc2)cc1 (configuration not stated) the results were SARS PLP yeast 0%, MARV entry inh inconclusive, RE007 growth inh -1%, NS1 inh 2%, Lassa entry inh inconclusive and StopGo reporter -6%.
O=C(CNC(=O)c1cccs1)Nc1ncccc1O was read as SARS PLP yeast -3%, MARV entry inh 14%[46.1 µM], RE007 growth inh 6%, Lassa entry inh inconclusive and StopGo reporter 9%.
For C=CCn1c(SCC(=O)Nc2ccc(NC(=O)c3ccco3)c(OC)c2)nnc1-c1ccncc1 the results were SARS PLP yeast -3%, MARV entry inh 6%&-3%, RE007 growth inh -4%, Cruzain Triton 0.3%, NS1 inh inconclusive, Lassa entry inh 2%, Cruzain inh noDet 2% and StopGo reporter -7%.
O=C(COc1ccc(Cl)cc1)NCc1nnc(SCC(=O)NCc2ccc3c(c2)OCO3)o1 was read as SARS PLP yeast 0%, MARV entry inh inconclusive, RE007 growth inh 10%, Cruzain Triton 1.9%, NS1 inh -5%, Lassa entry inh -3%, Cruzain inh noDet -7% and StopGo reporter -15%.
`Cc1cccc2cc(CN(CCc3ccccc3)C(=O)N3CCOCC3)c3nnnn3c12` gave SARS PLP yeast 13%, MARV entry inh -7%, RE007 growth inh 13%, Cruzain Triton 7.6%, NS1 inh 2%, Lassa entry inh -2%, Cruzain inh noDet -25% and StopGo reporter 38%[activator].
Cn1cnc([N+](=O)[O-])c1S(=O)(=O)Nc1ccccc1 was read as MARV entry inh 0%[46.1 µM], RE007 growth inh 1%, Lassa entry inh -14%[46.1 µM] and StopGo reporter 22µM*.
O=C(COC(=O)c1cnc(Cl)c(Cl)c1)Nc1cccc(S(=O)(=O)N2CCOCC2)c1 was read as SARS PLP yeast 8%, MARV entry inh -6%, RE007 growth inh 0%, Lassa entry inh -2% and StopGo reporter -2%.
For CCc1nnc(NC(=O)CSc2nnc(-c3ccncc3)n2Cc2ccccc2)s1 the results were SARS PLP yeast 2%, MARV entry inh -2%, Cruzain Triton -3.0%, NS1 inh -6% and Cruzain inh noDet 11%.
For COc1ccc(OC)c(-c2cc(C(=O)NCCCn3ccnc3)no2)c1 the results were SARS PLP yeast -2%, MARV entry inh 5%, RE007 growth inh -8%, Cruzain Triton 1.3%, NS1 inh -14%, Lassa entry inh 3%, Cruzain inh noDet 5% and StopGo reporter 22%.
CCOC(=O)C1C(C(C)=O)=C(c2ccccc2)c2ccccc2N1S(=O)(=O)C(F)(F)F (configuration not stated) was read as SARS PLP yeast -17%, RE007 growth inh 6%, Cruzain Triton -3.9%, Cruzain inh noDet -18% and StopGo reporter -24%.
For Cc1ccc(-c2csc3ncnc(NCCC(=O)O)c23)cc1 the results were SARS PLP yeast 1%, MARV entry inh 13%[46.1 µM], RE007 growth inh -8%, NS1 inh 13%, Lassa entry inh 27%[46.1 µM] and StopGo reporter -12%.
CC(=O)N1CCc2cc(N=NC3=C(O)CC(C)(C)CC3=O)ccc21 was read as SARS PLP yeast -1%, MARV entry inh inconclusive, RE007 growth inh -3%, Lassa entry inh -23% and StopGo reporter 24%.
Cc1cccc(NC(=O)CC2(CC(=O)O)CCCC2)c1 was read as SARS PLP yeast 0%, RE007 growth inh 19%, NS1 inh 1% and StopGo reporter -1%.
Cc1cc(C)nc(CCNC(=O)CC2C(=O)NCCN2Cc2ccccc2)n1 (configuration not stated) was read as SARS PLP yeast 0%, MARV entry inh 10%[46.1 µM], RE007 growth inh -5%, NS1 inh inconclusive, Lassa entry inh inconclusive and StopGo reporter 2%.
Screening C=CCn1c(SCC(=O)Nc2ccc3c(c2)OCO3)nnc1-c1ccccc1O returned SARS PLP yeast -1%, MARV entry inh 1%, RE007 growth inh 5%, Cruzain Triton -2.2%, NS1 inh -12%, Lassa entry inh 0%, Cruzain inh noDet -22% and StopGo reporter inconclusive.

Screening results as filed in PubChem.
